Vaccinia mCherry: inhibitors of vaccinia virus infection (mCherry reporter signal). Potency, µM (series often up to 36.5 µM), inactives show at the highest dose activity change, negative = inhibition, actives largely listed as inhibitors. Vaccinia virus mCherry reporter infection, fluorescence; about a quarter of the inactives have no number. 310,000 tested, 0.63% active; active = well fitted inhibition curve with a large enough effect; inconclusive = small, poorly fitted or top-dose-only effect; inactive = no such curve, though single readings can be large or run the other way; tested in A549 cells; further: nearly all actives have a fitted effect of over 35% in size; inactives centre near -10
VACV Venus inh: inhibitors of vaccinia virus (Venus reporter); Vaccinia virus Venus reporter expression, fluorescence; Potency, µM (top dose mostly 36.5 µM), for the others: at the top dose activity change, negative = inhibition, hits mostly inhibitors; 330,000 tested, 0.46% active; AID 720580; active means well fitted inhibition curve with a large enough effect; inconclusive means small, poorly fitted or top-dose-only effect; inactive means no such curve, though single readings can be large or run the other way; tested in A549 cells; further: nearly all actives have a fitted effect of over 30% in size; inactives centre near -10
Numbers without * were called inactive; i = inactive; u = inconclusive; x = no result given. On the % scale 0 is the no-effect control and ±100 the full control effect; potency means the concentration at half of the fitted maximal effect. Compounds were not picked by outcome; any-hit rate near 0.82%.

| smiles | Vaccinia mCherry | VACV Venus inh |
| --- | --- | --- |
| O=C(Nc1ccon1)c1ccc(Cl)s1 | i | -13% |
| CN1C(=O)C(C)(C)c2cc(S(=O)(=O)N3CCN(c4cccc(Cl)c4)CC3)ccc21 | -12% | -10% |
| Cc1nc2cc(-c3cccc(F)c3)nn2c(C)c1CCC(=O)NC(C)CCc1ccco1 (stereo not given) | u | -29% |
| Cc1ccc2c(c1)c1c(c(=O)n(-c3cccc(Cl)c3)c(=O)n1CC(=O)N1CCCC1)n2C | 11% | 12% |
| Cc1ccc(S(=O)(=O)N2CCCC2C(=O)Nc2ccc(Br)cc2)cc1 (stereo not given) | -20% | -19% |
| COc1ccc2[nH]c(N=Nc3ccccc3C)c(O)c2c1 | -15% | -8% |
| COc1ccc(S(=O)(=O)Nc2ccccc2C(=O)NCc2cccnc2)cc1OC | i | -3% |
| O=C(NCCc1c[nH]c2ccccc12)C(=O)NCC1OCCCN1S(=O)(=O)c1ccc(F)cc1 (stereo not given) | -29% | -17% |
| O=C(NCCCn1ccnc1)c1ccc(NS(=O)(=O)c2cccc([N+](=O)[O-])c2)cc1 | -12% | -4% |
| COc1ccc(CNC(=O)CC(C)n2nc(C)cc2C)cc1 (stereo not given) | -11% | -7% |
| COc1ccc(F)cc1S(=O)(=O)N1CCCC(C)C1 (stereo not given) | -10% | -4% |
| COc1cc(NC(=O)c2noc3c2CCC3)c(OC)cc1Cl | i | -5% |
| COc1ccccc1CNc1ncnc2c1c(-c1ccccc1)cn2-c1ccc(Br)cc1 | -18% | -14% |
| COc1ccc(C(=O)NCCc2nnc3ccc(SCC(=O)N4CCCC4)nn23)cc1 | 0% | -9% |
| CC(C(=O)Nc1ccc2c(c1)OCCO2)N1Cc2ccccc2C1=O (stereo not given) | -1% | -12% |
| O=c1[nH]c(CSc2nnc(COc3ccccc3)n2-c2ccccc2)nc2ccccc12 | -9% | -9% |
| O=C(CN1CCCC1)OCCCC1CCCCC1 | -3% | 6% |
| Cc1nn(C(C)C(=O)O)c(=O)c2ccccc12 (stereo not given) | i | -5% |
| Cc1ccc2c(c1)COc1c3ccc(C(=O)N4CCCCC4)cc3nn1-2 | u | u |
| CCOc1ccc(-n2c(=O)c3sc4ccccc4c3n(Cc3cccc(C)c3)c2=O)cc1 | -14% | -13% |
| Brc1nnc2n1-c1ccccc1Sc1ccccc1-2 | -20% | -4% |
| O=C(CN1CCC(NC(=O)c2ccco2)CC1)Nc1cccc2ccccc12 | x | 3% |
| O=C(CSCc1ccco1)Nc1cc(C(F)(F)F)ccc1N1CCOCC1 | -21% | -6% |
| CCCc1cc(=O)[nH]c(SCC(=O)Nc2cc(S(=O)(=O)N3CCCCC3)ccc2Cl)n1 | u | u |
| COc1ccc(-c2nc(N)ncc2-c2ccc(OC)c(OC)c2)c(O)c1 | u | u |
| CC1=Nc2ccccc2/C1=C/c1c(O)n(C)c(=O)[nH]c1=O | i | -9% |
| Cc1cccc(-n2c(Cc3cc(=O)[nH]c(=O)[nH]3)nnc2SC(C)C)c1 | -12% | 2% |
| CCOc1ccc(C(Nc2cccnc2)c2cc(Cl)c3cccnc3c2O)cc1 (stereo not given) | u | u |
| COc1cccc(C(=O)/C=C2\Sc3ccccc3N2C)c1 | -10% | -22% |
| CC(C)(C)C(=O)Nc1ccc(C(=O)N/N=C/c2ccccc2OC(=O)c2ccc(Cl)cc2Cl)cc1 | x | u |
| Cc1ccnc(SCC(=O)c2cccs2)n1 | i | -20% |
| CC(C)CN1CCC(=O)N([C@H](CSc2ccc(Br)cc2)c2ccccc2)CC1 | -14% | -12% |
| COc1cc(C(=O)N2CCCCC2c2cc(C(=O)NC(C)C)no2)cc(OC)c1C (stereo not given) | -7% | 8% |
| Cc1ccc(CNC(=O)C2CCCN(S(=O)(=O)c3ccc(-n4cnnn4)cc3)C2)cc1 (stereo not given) | -18% | 12% |
| O=C(O)C1(Br)CC12c1ccccc1-c1ccccc12 (stereo not given) | -3% | -14% |
| COc1cc(C)c(-c2cc(C(=O)O)c(C)o2)cc1C(C)C | x | -19% |
| Cc1ccc(C(=O)CSc2nc3ccc(C(=O)NCCN4CCCCC4)cc3c(=O)[nH]2)cc1 | -8% | -3% |
| O=C(CCl)N(O)c1ccc(C=Cc2ccccc2)cc1 | -3% | -4% |
| CCOc1ccc(CN2CCNC(=O)C2CC(=O)NCc2ccccn2)cc1 (stereo not given) | -4% | 2% |
| COc1ccc(N(CC(=O)N2CCN(c3cccc(Cl)c3)CC2)S(=O)(=O)c2c(C)noc2C)cc1 | -21% | -14% |
| O=C(CN1CCCCC1)N1CCCc2ccccc21 | i | 5% |
| Cc1ccccc1C(=O)Nc1ccccc1C(=O)OCc1cc(=O)n2ccsc2n1 | -17% | -5% |
| Nc1[nH]c(=O)nc(Nc2ccccc2)c1N=O | u | 5% |
| COC(=O)c1ccccc1NC(=O)c1c(O)c2c([nH]c1=O)CCCC2 | -19% | 3% |
| Cc1ccc(S(=O)(=O)c2nc(-c3cccc(Cl)c3)oc2NCc2ccccc2)cc1 | -15% | -5% |
| CN(c1ccccc1)S(=O)(=O)c1ccc(C(=O)NCCc2ccc(F)cc2)cc1 | -15% | -9% |
| O=C(Nc1nnc(-c2ccncc2)o1)c1ccccc1F | -13% | -7% |
| O=C(CN1C(=O)CSc2ccc(S(=O)(=O)N3CCCCC3)cc21)NCc1ccccc1 | i | -22% |
| COc1cc2c(cc1NC(=O)COc1ccc(Cl)cc1)oc1ccccc12 | u | u |
| O=C(CC1N=C2c3ccccc3N=C(SCc3cccc(F)c3)N2C1=O)NCc1ccc2c(c1)OCO2 (stereo not given) | -16% | -7% |
| Cc1nc2cccnc2n1-c1cccc(C(=O)NCc2ccc(OC(C)C)cc2)c1 | -19% | -19% |
| CCOc1ccc(NC(=O)[C@H](Cc2ccccc2)NC(=O)C2CCNCC2)cc1 | i | -9% |
| CCCCCC(=O)N1C[C@@H](O)[C@H](n2cc(-c3ccc(F)cc3)nn2)C[C@@H]1c1ccc(OC)cc1 | 13% | -10% |
| Cc1cccc(C)c1NC(=S)Nc1ccc(F)cc1 | 3% | 0% |
| O=[N+]([O-])c1cnccc1-n1nnc2ccccc21 | u | u |
| COc1ccc(CCN2CCC(CNC(=O)c3cnn(-c4ccc(C)cc4)c3C3CCN(C(=O)OC(C)(C)C)CC3)CC2)cc1 | u | 11µM* |
| CC(=O)N1N=C(c2ccccc2)CC1c1ccccc1[N+](=O)[O-] (stereo not given) | -19% | -17% |
| C[C@H]1CN([C@@H](C)CO)C(=O)CCCn2nncc2CO[C@H]1CN(C)C(=O)Cc1ccccc1 | -15% | -8% |
| CCOC(=O)c1csc(Nc2nc3ccc(F)cc3s2)n1 | u | -26% |
| COc1ccc(S(=O)(=O)N2CCC(C(=O)NCCC(=O)NCc3ccccn3)CC2)cc1 | i | -10% |

The results go on:
Structure	Vaccinia mCherry	VACV Venus inh
COCCNC(=O)c1ccc(CS(=O)(=O)c2ccc(OC)cc2)o1	-5%	0%
Cc1ccccc1OCC(=O)N(Cc1nc(-c2ccccc2)no1)C(C)C	i	-8%
CC(C)(C)[C@@H]1COC(=O)[C@H](Cc2ccc(F)cc2)CC/C=C\C[C@@H](CC(=O)N(CCO)Cc2ccccc2)C(=O)N1	-24%	u
O=C(C(=O)N1CCN(c2ccccc2F)CC1)c1ccccc1	-23%	-19%
O=C(NC1=NCCS1)c1ccc(N2CCCC2=O)cc1	i	-9%
O=C1NCN(c2ccccc2)C12CCN(c1nnnn1-c1ccccc1)CC2	u	-23%
CCC(CC)NC(=O)COC(=O)CCC(=O)c1ccc(Cl)cc1	-11%	1%
COc1ccc(CCNC(=O)CN(c2ccccc2)S(=O)(=O)c2ccccc2)cc1	i	-15%
O=C(CCl)Nc1ccccc1Sc1ccccc1	-15%	-8%
O=C(CSc1nc2c(cnn2-c2ccccc2)c(=O)[nH]1)N1CCCCC1	-14%	-5%
CCOC(=O)N1CCN(C(=O)CN(c2ccc(Oc3ccccc3)cc2)S(C)(=O)=O)CC1	-20%	-16%
O=C(CNC(=O)/C(=C\c1ccc(F)cc1)NC(=O)c1ccccc1)OCc1ccccc1	-4%	9%
Cc1ccccc1OCC(=O)Nc1ccccc1C(=O)NC1CC1	u	-22%
NC(=O)c1nnn(-c2ccccc2)c1N	-16%	-10%
CC(C)(C)c1ccc(S(=O)(=O)Nc2ccc(C(O)(C(F)(F)F)C(F)(F)F)cc2)cc1	8%	-24%
O=C(C1CCCO1)N1CCN(C(c2ccccc2)c2ccccc2)CC1 (stereo not given)	-5%	-3%
N#Cc1c(Nc2cccc(F)c2)sc2c(O)cc(=O)[nH]c12	-16%	1%
Cc1ccc(-c2nnn(CC(=O)Nc3nnc(C(C)C)s3)n2)cc1	0%	1%
Cn1nc(-c2ccccc2)c(-c2nc(-c3cccc(C(F)(F)F)c3)no2)c1Cl	-11%	-7%
CCc1ccc(NC(=O)C(C)n2nc(C)c([N+](=O)[O-])c2C)cc1 (stereo not given)	-9%	-8%
Cc1cc(-c2ccc(C)c(S(=O)(=O)NCCc3ccc(S(N)(=O)=O)cc3)c2)on1	i	-17%
N=c1sccn1CC(=O)Nc1cccc(Oc2ccccc2)c1	-16%	-29%
COc1ccc(/C=C/c2nc(N)nc(-c3ccccc3O)n2)cc1OC	-14%	-17%
Cc1ccc2nc(-c3sc4nc(C)cc(C)c4c3N)[nH]c2c1	u	u
O=C(NCc1ccccc1)c1ccc(NC(=O)c2nsc3ccccc23)cc1	-1%	-8%
O=C(CSc1ncnc2ccccc12)Nc1cccc(S(=O)(=O)N2CCOCC2)c1	-37%	-27%
CCc1cc(C(=O)c2ccccc2OC)c(N)s1	-6%	-20%
Cc1nc(=O)c(-c2ccccc2)c(C)n1CCO	-5%	-7%
Cc1ccc(/C=C2/NC(=O)N(Cc3ccccc3F)C2=O)o1	i	4%
Cc1ccc(NC(=O)CSc2nc(C)cc(C)c2C(=O)Nc2cccc(C)c2)cc1	-10%	-13%
Cc1cccc(C(=O)OCC(=O)N2CCc3ccccc3C2)c1O	-13%	-2%
CCOC(=O)C1Cn2c(nc3c(c2=O)C(C)(CC)Cc2ccccc2-3)S1 (stereo not given)	u	-27%
CN(C)N1C(N)=C(C#N)C(c2ccsc2)C2=C1CCCC2=O (stereo not given)	-2%	-2%
O=[N+]([O-])c1cc(Cl)c(Cl)c(Cl)c1Cl	-14%	-8%
COc1ccc(Cl)cc1N1C(=O)C2CCCN2C1c1ccc(F)c(F)c1 (stereo not given)	-7%	-3%
O=C(NCC1COc2ccccc2O1)c1ccc(NC(=O)c2ccco2)cc1 (stereo not given)	x	u
CCC(=O)N/N=C/c1ccc(-c2ccc(Cl)cc2)o1	-6%	-6%
O=C(c1ccco1)N1CCN(Cc2cc(=O)c(OCc3cccc(Cl)c3)co2)CC1	-19%	-5%
Cn1c(-c2cccs2)[n+](C)c2ccccc21	-14%	-23%
CCC(=O)N1c2ccc(S(=O)(=O)CCC(=O)NCc3ccccc3OC)cc2CC1C (stereo not given)	6%	2%
CC(C)(C)c1ccc(CC(=O)N2CCC2(C)C(=O)NS(=O)(=O)c2ccc(Cl)cc2)cc1 (stereo not given)	-8%	0%
CS(=O)(=O)c1ccc(-c2sc3ccccc3c2C(=O)N2CCN(c3ccc(F)cc3)CC2)cc1	u	-10%
CCN(c1ccc(C)cc1C)S(=O)(=O)c1nnc(NC(=O)C(C)(C)C)s1	i	-15%
Cc1cc(=O)oc2cc(OCCSCCN3CCCC3)ccc12	-11%	-1%
CC(C)N(Cc1nccn1C)C(=O)c1ccc2oc(CCCc3ccccc3)nc2c1	-26%	-22%
O=C(CNC(=O)c1cccs1)OCC(=O)c1ccccc1Cl	i	12%
O=C1c2ccc(Oc3ccc4c(c3)C(=O)N(CCCO)C4=O)cc2C(=O)N1CCCO	x	-35%
C(=N\N1CCN(c2ccccc2)CC1)/c1ccccc1	i	2%
COc1ccc(C(c2sc3nc(C)nn3c2O)N2CCC(C(N)=O)CC2)cc1OC (stereo not given)	i	5%
CCCCCCCC1CC(CSc2ncn[nH]2)OC1=O (stereo not given)	-9%	-19%
CCC(C)(C)NC(=O)C(c1ccccc1F)N(C(=O)c1ccn[nH]1)c1ccccc1 (stereo not given)	-16%	u
C=CCn1c(CCNC(=O)c2ccccc2F)nnc1SCC(=O)Nc1ccc(OC)cc1	-11%	-12%
COc1ccc2c(c1)cc1c(=O)n(CC(=O)NCCCOC(C)C)nc(C)n12	-13%	-18%

Exported with two lines to a compound: entries from further up.
Every second line gives: Vaccinia mCherry | VACV Venus inh
COc1ccc(CCNC(=O)CN(c2ccccc2)S(=O)(=O)c2ccccc2)cc1
  i | -15%
O=C(CCl)Nc1ccccc1Sc1ccccc1
  -15% | -8%

Rewritten field by field: part of the list above.
smiles: CCC(C)(C)NC(=O)C(c1ccccc1F)N(C(=O)c1ccn[nH]1)c1ccccc1 (stereo not given)
  Vaccinia mCherry: -16%; VACV Venus inh: u

smiles: COc1ccc(C(c2sc3nc(C)nn3c2O)N2CCC(C(N)=O)CC2)cc1OC (stereo not given)
  Vaccinia mCherry: i; VACV Venus inh: 5%

smiles: COc1ccc2c(c1)cc1c(=O)n(CC(=O)NCCCOC(C)C)nc(C)n12
  Vaccinia mCherry: -13%; VACV Venus inh: -18%

smiles: C=CCn1c(CCNC(=O)c2ccccc2F)nnc1SCC(=O)Nc1ccc(OC)cc1
  Vaccinia mCherry: -11%; VACV Venus inh: -12%

Screening data: PubChem, National Center for Advancing Translational Sciences (NCATS)
